TRPV1 PAM – enhances activation of the human vanilloid receptor TRPV1 | TRPV1-expressing cells, Fluo-8 calcium influx, capsaicin EC20 potentiation; host cell line not named in the record; control for the full effect not named in the record | potentiation, % at 8.33 µM | 320,000 tested, 0.02% active | AID 540277; active means potentiation above 80%; inconclusive means 30% to 80%; inactive means below 30%; also: 0% is about no effect
Target sequence (Q8NER1 whole entry, looked up): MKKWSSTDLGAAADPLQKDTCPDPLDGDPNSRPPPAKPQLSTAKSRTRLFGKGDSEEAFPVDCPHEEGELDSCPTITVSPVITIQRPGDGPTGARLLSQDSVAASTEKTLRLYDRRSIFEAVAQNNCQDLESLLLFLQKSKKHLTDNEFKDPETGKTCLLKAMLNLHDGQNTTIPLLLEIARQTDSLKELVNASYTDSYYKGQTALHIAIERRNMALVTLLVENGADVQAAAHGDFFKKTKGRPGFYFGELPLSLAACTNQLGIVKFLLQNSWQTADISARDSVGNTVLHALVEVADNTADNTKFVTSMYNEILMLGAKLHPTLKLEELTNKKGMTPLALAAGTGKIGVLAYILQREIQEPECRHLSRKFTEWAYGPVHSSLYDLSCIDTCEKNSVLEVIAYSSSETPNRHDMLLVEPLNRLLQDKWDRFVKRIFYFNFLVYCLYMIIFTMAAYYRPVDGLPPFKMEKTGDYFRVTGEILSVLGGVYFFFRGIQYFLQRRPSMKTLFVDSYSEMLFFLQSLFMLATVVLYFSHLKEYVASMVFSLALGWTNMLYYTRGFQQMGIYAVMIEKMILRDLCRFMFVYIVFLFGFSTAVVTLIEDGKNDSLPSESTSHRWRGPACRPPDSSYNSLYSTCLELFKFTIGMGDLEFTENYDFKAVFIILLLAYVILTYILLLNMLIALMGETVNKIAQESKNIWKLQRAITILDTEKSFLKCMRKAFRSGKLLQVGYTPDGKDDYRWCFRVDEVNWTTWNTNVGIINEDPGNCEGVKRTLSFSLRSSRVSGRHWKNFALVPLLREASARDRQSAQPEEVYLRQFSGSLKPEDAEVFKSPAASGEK
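Fluo-8 calcium influx in TRPV1-expressing cells, kinetic read (ex 480/em 520 nm). Compound added and read 3 min for agonist activity, followed by capsaicin at EC20 final and 2 min further read for enhancement.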
gsp antag – antagonists of gsp mutant (McCune-Albright syndrome) | gsp-mutant cells, cAMP HTRF, 30 min; control for the full effect not named in the record | Potency, µM (series often up to 76.9 µM), for the others: at the top dose activity change, negative = inhibition, hits mostly inhibitors | 340,000 tested, 0.4% active; active = falling curve of any shape with a large fitted effect; inconclusive = falling curve, mostly with a smaller effect; inactive = flat or rising curve; cell line not stated here;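 also: intracellular cAMP measured with PDE inhibitor Ro 20-1724 present during compound exposure; potency is read from the fitted curve at half-maximal effect; % is scaled to controls: 0 for no effect and ±100 for the full control effect; nearly all actives have a fitted effect of over 65% in size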
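Measurement of cellular cAMP by homogeneous time-resolved fluorescence following a 30 min compound exposure at 37C. The PDE inhibitor […] was present throughout; the assay buffer was DPBS with 0.05% BSA and 0.005% Tween 20.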
gsp agonist – activates gsp, the McCune-Albright syndrome mutation. 340,000 tested, 0.13% active. AID 624287. Potency, µM (titrated, usually from 76.9 µM), without a hit: at the highest dose activation (cAMP increase), hits mostly activators. gsp mutant cells, cAMP HTRF, 30 min; control for the full effect not named in the record; active = well fitted activation curve with a large enough effect; inconclusive = small, poorly fitted or top-dose-only effect, or another doubt; inactive = no such curve, though single readings can be large or run the other way; cell line not stated here;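 also: phosphodiesterase inhibitor Ro 20-1724 added with compounds to block cAMP breakdown; potency is read from the fitted curve at half-maximal effect; nearly all actives have a fitted effect of over 60% in size; about a fifth of the inactives were tested at one dose only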
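Cells stably selected in G418 were plated at 2000/well, grown 16-24 hr, then given compounds in DMSO with the PDE inhibitor […] (300 uM solution added) for 30 min at 37C; cAMP was read by HTRF.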
Sfp inh – Sfp phosphopantetheinyl transferase inhibition; AID 1490; Biochemical Sfp PPTase activity, qHTS; 310,000 tested, 3.5% active; Potency, µM, for inactives: max response, negative = inhibition, hits mostly inhibitors; active = well fitted inhibition curve with a large enough effect; inconclusive = small, poorly fitted or top-dose-only effect, or another doubt; inactive = no such curve, though single readings can be large or run the other way;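 also: the enzyme is Sfp with the accession as filed and its product quenches rhodamine fluorescence; potency is read from the fitted curve at half-maximal effect; 0% = enzyme reaction without inhibitor and -100% = no enzyme wells; top concentration of the series not given in the record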
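Fluorescence-quenching assay: 15 nM Sfp-PPTase preincubated 15 min at room temperature with compound, then 5 uM rhodamine-CoA and 12.5 uM BHQ-2-labelled YbbR peptide added. Fluorescence (ex 525/em 598 nm) read at start and after 30 min; difference gives rate.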
ClpP mod – qHTS Assay for Activators of ClpP; ATP-dependent Clp protease proteolytic subunit (Bacillus subtilis (strain 168)), P80244; purified B. subtilis ClpP, FRET peptide cleavage, 20 min; Potency, µM (titrated, usually from 57.5 µM), without a hit: at the top dose activity change, negative = active; 340,000 tested, 1.9% active; AID 651965, 2013; active = well fitted falling curve with a large enough effect; inconclusive = small, poorly fitted or top-dose-only effect; inactive = no such curve, though single readings can be large or run the other way; also: potency is read from the fitted curve at half-maximal effect; the source files actives as falling curves though it sought activators and does not explain the sign; nearly all actives have a fitted effect of over 65% in size; many hits overshoot -100%
Target sequence (P80244 whole entry, looked up): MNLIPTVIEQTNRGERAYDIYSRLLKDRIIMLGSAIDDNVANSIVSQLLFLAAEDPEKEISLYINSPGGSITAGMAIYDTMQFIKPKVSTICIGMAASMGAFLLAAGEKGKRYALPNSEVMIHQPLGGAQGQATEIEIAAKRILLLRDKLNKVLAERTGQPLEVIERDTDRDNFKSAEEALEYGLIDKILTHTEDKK
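Purified B. subtilis ClpP, 10 microg/mL final in Tris/HCl pH8 with KCl, BSA, glycerol and Tween-20, cleaved an Abz/nitrotyrosine-quenched decapeptide. Fluorescence (ex 320, em 430) was read at 0 and 20 min at room temperature. Delta was normalized to 5.8 microM ADEP and DMSO/no-enzyme controls.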
D2 potentiator – potentiates the human D2 dopamine receptor allosterically; P14416; DiscoveRx D2 beta-arrestin cells, luminescence, 90 min; 100% = 57 uM dopamine signal; potentiation, % (test concentration not listed); 360,000 tested, 0.23% active; active = potentiation of 50% or more; inconclusive = 30% to 50%; inactive = 30% or less;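 also: compound concentration not given in the record; tested on top of an EC20 dose of dopamine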
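PathHunter beta-arrestin assay in DiscoveRx D2 cells. Compounds were added with an EC20 of dopamine (50 nM final) for 90 min at 37 deg C. Luminescence was read 1 h after detection reagent, with 57 uM dopamine as the EC100 control.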
Menin MLL FP FL – displaces fluorescein MLL peptide from human menin | FP activity change, % at 61.4 µM | 290,000 tested, under 10 active | Fluorescence polarization, fluorescein-MLL peptide displacement from menin; inconclusive = falling polarisation curve, or a change in total fluorescence; inactive = total fluorescence flat and polarisation flat or rising; no compound was filed as active; the % refers to the polarisation; negative = inhibition;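 also: % of control where 0% means no effect; inhibitors lower the polarisation; unlabelled MLL peptide was the positive control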
Active calls of the source: *; ? = inconclusive; . = not tested or not shown; & = joins results of further samples; [ ] = remark or other dose. An excerpt. The share of hits here may be higher or lower than overall.

(1) CCOC(=O)C1CCN(/C=C2/C(=O)NC(=O)N(Cc3ccco3)C2=O)CC1
(2) CC1C(C)N1CC(O)Cn1ccnc1[N+](=O)[O-] (centres undefined)
(3) Cc1ccccc1-n1c(-c2ccoc2)nc2ccccc2c1=O
(4) O=C(COc1ccc(Cl)cc1)N1CCN(C2CCCC2)CC1
(5) Cc1[nH]c2ccccc2c1C(=O)C(=O)N1CC2CC(C1)c1cccc(=O)n1C2 (centres undefined)
(6) Cc1ccc2[nH]c(=S)n(-c3cccnc3)c(=O)c2c1

entry no.	1	2	3	4	5	6
TRPV1 PAM	-4	26	?	-3	-1	1
gsp antag	-1%	11%	-60%	-5%	5%	-4%
gsp agonist	15%	?	19%[15.4 µM]	14%	-20%[15.4 µM]	8%[15.4 µM]
Sfp inh	?	17%	-13%	-6%	13%	-3%
ClpP mod	-0.9%	-1.9%	.	.	2.1%	.
D2 potentiator	12	16	7	-7	-15	-4
Menin MLL FP FL	18	-2.5	-1.7	.	2.8	4.8

(7) Cc1cc(S(=O)(=O)NC(C)C)ccc1OCC(=O)N1CCN(Cc2ccc3c(c2)OCO3)CC1
(8) O=C1NC(=O)N(Cc2ccccc2Cl)C(=O)/C1=C/N1CCOCC1
(9) Brc1ccc2c(c1)C(OC1CN3CCC1CC3)c1ccccc1CS2 (centres undefined)
(10) CCCC12CN3CN(C1)CC(CCC)(C3)C2O (centres undefined)
(11) Oc1c(Cl)cccc1Cc1cc(Cl)cc(Cl)c1O
(12) COC(=O)C1=C(c2c(C)noc2C)C[C@@H]2CC[C@H]1N2C(=O)N1CCC(O)(c2ccc(Cl)cc2)CC1

entry no.	7	8	9	10	11	12
TRPV1 PAM	-2	-1	-1	3	.	10
gsp antag	?	13%	18%	6%	-13%	-6%
gsp agonist	-7%	-16%	27%	0%	4%	2%
Sfp inh	-13%	10µM*	-14%	16%	.	.
ClpP mod	-2.1%	-0.9%	1.5%	1.2%	.	-0.8%
D2 potentiator	-5	-5	-50	-19	3	-2
Menin MLL FP FL	0.4	27	3.2	0.1	.	.

(13) CSc1ncc(Br)c(N2CC2)n1
(14) CC(C)CC(C)N (centres undefined)
(15) CCN(CC)C(=O)Oc1nnc(SC(C)C)n1-c1ccc(Cl)c(Cl)c1
(16) CCOC(=O)C1(CCc2ccccc2)CCN(Cc2ccc3c(c2)OCCO3)CC1
(17) COC(=O)C1=C(c2cccc3c2S(=O)(=O)c2ccccc2-3)C[C@@H]2CC[C@H]1N2C(=O)N1CCc2cc(OC)c(OC)cc2C1
(18) Cc1ccc(/C=C2/C(=O)NC(=O)N(CCc3ccc(F)cc3)C2=O)o1

entry no.	13	14	15	16	17	18
TRPV1 PAM	.	2	-7	-2	5	-1
gsp antag	-1%	3%	?	-9%	-7%	3%
gsp agonist	30%	.	1%[15.4 µM]	1%[15.4 µM]	-28%	2%
Sfp inh	.	.	1%	10%	.	56µM*
ClpP mod	.	1.4%	.	.	-16%	1.0%
D2 potentiator	1	-12	-5	-13	16	-2
Menin MLL FP FL	.	.	2.3	-1.4	.	?

(19) CC(=O)c1ccc(OCC(=O)N2CCCC(N3CCN(c4ccccc4C)CC3)C2)cc1 (centres undefined)
(20) O=C1OC(c2ccc(Cl)cc2)=N/C1=C\N1CC2CC(C1)c1cccc(=O)n1C2 (centres undefined)
(21) COC(=O)C1C(O)C(C)C(O)C(C)/C=C\C=C(/C)C(=O)Nc2c(C)c(OC(C)=O)c3c(c2O)C(=O)C(C)=C2OCOC(=C23)/C(C)=C/C(C)(O)C(O)C(C)C1O (centres undefined)
(22) COc1cc(C(=O)Nc2ccc(Br)cc2C(=O)c2ccccc2Cl)cc(OC)c1OC
(23) CC(Cc1ccccc1)NCc1ccccc1O (centres undefined)
(24) C=C1CC[C@@]2(O)[C@H]3Cc4ccc(O)c5c4[C@@]2(CCN3CC2CC2)[C@H]1O5

entry no.	19	20	21	22	23	24
TRPV1 PAM	-11	-6	4	4	-1	1
gsp antag	-12%	-8%	1%	10%	-1%	3%
gsp agonist	-39%[inhibitor]	-3%	-7%	6%	33%[15.4 µM]	.
Sfp inh	18%	-4%	11%	7%	24%	17%&7%
ClpP mod	-0.7%	0.0%	0.3%	-3.0%	.	-1.8%
D2 potentiator	-22	-12	4	8	-6	-10
Menin MLL FP FL	.	-1.4	2.9	2.9	-2.6	8.4&-3.3

Sorted by number of heavy atoms (smallest number first): some entries from above
(2) CC1C(C)N1CC(O)Cn1ccnc1[N+](=O)[O-] (centres undefined)
(6) Cc1ccc2[nH]c(=S)n(-c3cccnc3)c(=O)c2c1
(3) Cc1ccccc1-n1c(-c2ccoc2)nc2ccccc2c1=O
(16) CCOC(=O)C1(CCc2ccccc2)CCN(Cc2ccc3c(c2)OCCO3)CC1
(22) COc1cc(C(=O)Nc2ccc(Br)cc2C(=O)c2ccccc2Cl)cc(OC)c1OC

entry no.	2	6	3	16	22
TRPV1 PAM	26	1	?	-2	4
gsp antag	11%	-4%	-60%	-9%	10%
gsp agonist	?	8%[15.4 µM]	19%[15.4 µM]	1%[15.4 µM]	6%
Sfp inh	17%	-3%	-13%	10%	7%
ClpP mod	-1.9%	.	.	.	-3.0%
D2 potentiator	16	-4	7	-13	8
Menin MLL FP FL	-2.5	4.8	-1.7	-1.4	2.9

Going on with the list.
(25) COc1ccc(S(=O)(=O)NC(CC(=O)N2CCC3(CC2)OCCO3)C(C)C)cc1 (centres undefined)
(26) COC(=O)C1=C(c2cccc(OC)c2OC)C[C@@H]2CC[C@H]1N2C(=O)NC1CCCCC1
(27) CC1=C(C(=O)OC(C)C)[C@]2(C(=O)N(CC(N)=O)c3ccccc32)C(C#N)=C(N)O1
(28) COC(=O)C1=C(c2cc3ccccc3s2)C[C@@H]2CC[C@H]1N2C(=O)NCc1cccc2ccccc12
(29) CC1CN(CCc2ccccc2)CC(C)O1 (centres undefined)
(30) O=c1[nH]c(=O)n(CCc2ccc(F)cc2)c(O)c1C=NCCCn1ccnc1

entry no.	25	26	27	28	29	30
TRPV1 PAM	3	.	-1	.	-2	26
gsp antag	-1%	-4%	7%	-3%	4%	8%
gsp agonist	-17%	16%	-10%	22%	22%	4%
Sfp inh	2%	.	15%	.	-12%	-1%
ClpP mod	1.0%	-1.2%	1.5%	-7.4%	-1.8%	-1.1%
D2 potentiator	-11	-10	.	-10	-10	-3
Menin MLL FP FL	1.8	.	1.3	.	6.7	12

(31) C[C@]12CC[C@H]3[C@@H](CCC4=CC(=O)CC[C@@]43O)[C@@H]1CCC2=O
(32) Cc1cc2ccccc2n1CCNC(=O)COc1ccccc1
(33) Cc1cc(=O)oc2cc(OCC(=O)N3CCN(C(C)c4ccccc4)CC3)c(Cl)cc12 (centres undefined)
(34) CCOP(=O)(OCC)C(NC(=O)c1ccc(OC)cc1)C(Cl)(Cl)Cl (centres undefined)
(35) C/C=C1/CN2[C@@H]3C4CO[C@@H]3c3c([nH]c5cc(OC)ccc35)[C@@H]2CC14 (some centres undefined)
(36) COCCCNC(=O)c1c(NC(=O)c2ccccc2Cl)n(Cc2ccccc2)c2nc3ccccc3nc12

entry no.	31	32	33	34	35	36
TRPV1 PAM	18	-13	-2	7	.	-4
gsp antag	11%	-5%	-20%	5%	1%	12%
gsp agonist	-23%	?	16%	4%	.	6%
Sfp inh	-2%	7%	.	13%	.	16%
ClpP mod	-0.3%	-13%	4.1%	.	-2.6%	?
D2 potentiator	2	-18	0	-3	-7	-3
Menin MLL FP FL	-0.1	?	.	-6.5	.	?

(37) Cc1ccnc(-n2c(C)nc3ccccc3c2=O)c1
(38) CCOP(=O)(OCC)c1cccc(P(=O)(c2ccccc2)c2ccccc2)c1O
(39) CC(CC(C)(C)N1CC1)=NO
(40) CC1(C)CC2CCC(O)C2C(CCO)N1 (centres undefined)
(41) CC1C(c2cccs2)=[N+]([O-])C(C)(C(=O)c2cccs2)N1O (centres undefined)
(42) CC(=O)OC(C)(C)/C=C/C(=O)[C@](C)(O)[C@H]1[C@H](O)C[C@@]2(C)[C@@H]3CC=C4[C@H](C[C@H](O)C(=O)C4(C)C)[C@]3(C)C(=O)C[C@]12C
(43) CCc1c(C)nc(N)nc1N1N=C1SCC(=O)OC
(44) CC(=O)O[C@H]1C[C@@H]2CC[C@@H]3[C@H](CC[C@]4(C)C(=O)CC[C@@H]34)[C@@]2(C)C[C@@H]1OC(C)=O

entry no.	37	38	39	40	41	42	43	44
TRPV1 PAM	12	0	.	.	4	4	-8	-15
gsp antag	17%	2%	7%	8%	3%	9%	14%	-6%
gsp agonist	-7%	?	0%	-2%	-39%[inhibitor]	.	-1%[15.4 µM]	-17%
Sfp inh	-7%	-2%	.	.	14%	7%	22%	.
ClpP mod	0.1%	.	2.5%	-0.6%	-1.6%	-1.3%	.	-0.4%
D2 potentiator	-1	2	-8	8	-6	-9	-2	-3
Menin MLL FP FL	0.7	0.0	.	.	2.1	0.0	-0.2	.

Single entries from the results shown:
In gsp antag, `CC(=O)O[C@H]1C[C@@H]2CC[C@@H]3[C@H](CC[C@]4(C)C(=O)CC[C@@H]34)[C@@]2(C)C[C@@H]1OC(C)=O` is entered as -6%
In gsp antag, `CC1C(c2cccs2)=[N+]([O-])C(C)(C(=O)c2cccs2)N1O` (centres undefined) is entered as 3%
In D2 potentiator, `CC1(C)CC2CCC(O)C2C(CCO)N1` (centres undefined) is entered as 8
In gsp antag, `CC(CC(C)(C)N1CC1)=NO` is entered as 7%
In Sfp inh, `CC(=O)OC(C)(C)/C=C/C(=O)[C@](C)(O)[C@H]1[C@H](O)C[C@@]2(C)[C@@H]3CC=C4[C@H](C[C@H](O)C(=O)C4(C)C)[C@]3(C)C(=O)C[C@]12C` is entered as 7%

Screening data (PubChem)
